RecA splice inh = Mtb RecA intein splicing inhibitors, primary screen, biochemical, fluorescence, HTS; cell-free RecA intein splicing; inhibition, %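 (about 9 µM by stock and volumes)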; 0.75% of 290,000 active; in the data active = inhibition above about 30%; inconclusive = no clear call, values can overlap the other calls;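 note: 0% = vehicle wells and 100% = reference inhibitor control wells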
Target sequence (P9WHJ3 whole entry, looked up, canonical isoform): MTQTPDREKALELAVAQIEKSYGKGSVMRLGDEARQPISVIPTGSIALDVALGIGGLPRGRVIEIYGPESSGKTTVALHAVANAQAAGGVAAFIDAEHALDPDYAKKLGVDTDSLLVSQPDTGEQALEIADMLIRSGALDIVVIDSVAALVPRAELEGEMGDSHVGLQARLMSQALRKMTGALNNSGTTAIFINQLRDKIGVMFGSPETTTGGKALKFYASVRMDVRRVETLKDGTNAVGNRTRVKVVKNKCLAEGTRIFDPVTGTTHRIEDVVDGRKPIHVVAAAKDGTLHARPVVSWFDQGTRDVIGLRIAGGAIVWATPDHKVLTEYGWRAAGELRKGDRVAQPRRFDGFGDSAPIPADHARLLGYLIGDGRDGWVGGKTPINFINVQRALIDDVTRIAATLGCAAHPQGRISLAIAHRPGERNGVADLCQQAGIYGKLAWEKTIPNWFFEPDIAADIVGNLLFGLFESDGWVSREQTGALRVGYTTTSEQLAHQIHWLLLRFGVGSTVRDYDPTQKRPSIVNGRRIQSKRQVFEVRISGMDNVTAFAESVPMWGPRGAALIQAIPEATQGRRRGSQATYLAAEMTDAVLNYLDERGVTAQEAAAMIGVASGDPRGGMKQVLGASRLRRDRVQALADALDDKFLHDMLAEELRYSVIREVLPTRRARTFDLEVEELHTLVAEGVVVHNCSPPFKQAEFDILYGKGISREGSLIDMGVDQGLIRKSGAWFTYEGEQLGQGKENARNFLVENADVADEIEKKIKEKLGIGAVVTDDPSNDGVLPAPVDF
Mtb H37Rv = M. tuberculosis H37Rv growth inhibitors, H37Rv strain (AID 1626) | M. tuberculosis H37Rv growth inhibition; higher % means a stronger effect | inhibition, % at 10 µM; hits with a dose series show IC50 in µM | 0.95% of 220,000 active;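 active = confirmed in a dose series; inconclusive = inhibition above 80% but not taken into the dose series; inactive = below 80% or under 30% at every dose of the series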;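 note: bacteria incubated seven days before Alamar blue readout; 0% = bacteria only wells and 100% = bacteria with antibiotic wells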
YopH inh = YopH tyrosine phosphatase inhibitors, primary screen, biochemical, fluorescence Ex485/Em525; YopH tyrosine phosphatase [Yersinia enterocolitica]; inhibition, %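 (about 10 µM by stock and volumes)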; 0.16% of 140,000 active;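 active = inhibition of 50% or more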;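 note: controls were vehicle for no effect and minimum signal wells for full effect; inactives centre near -20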
Mtb bLac sens = beta-lactam sensitization of Mtb H37Rv, H37Rv. M. tuberculosis H37Rv growth with meropenem, percent inhibition; hits of this screen are not shown here. inhibition, % at 25 µM. 0.27% of 330,000 active;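 active = about 74% or more and at least 40 points above the plate without the antibiotic, then above 30% in a dose series; inconclusive = first-round hits that could not be retested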;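 note: growth measured after seven days incubation then overnight dye step; 0% = bacteria only wells and 100% = bacteria with antibiotic; twin plates without the antibiotic show which effects depend on it; some results filed as inactive read as strong as hits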
Arbovirus inh = antivirals against arbovirus infection, primary screen, cell-based, full library, 10K replicate subset. arbovirus infection cell-based antiviral screen. inhibition, % at 10 µM. 0.37% of 200,000 active. AID 1251, 2008;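 active = inhibition from about 30%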;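 note: bluetongue infection of BSR cells; cell survival read as ATP light after 72 h; 0% = infected wells without compound and 100% = uninfected wells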
Arbovirus inh repeat = second read-out of Arbovirus inh, no call of its own (marks repeat the call); inhibition, %; measured here: 10K subset replicate screen; many hits read low in the repeat;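 first of two repeat runs on a subset; 0% = infected and 100% = uninfected wells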
* hit, by the source's call; u = inconclusive; x = no result given.

The opening four records, to show the layout:
SMILES	RecA splice inh	Mtb H37Rv	YopH inh	Mtb bLac sens	Arbovirus inh	others
COc1ccc2c(C)cc(N3CCN(c4ccc(F)cc4)CC3)nc2c1	0.6	4%	12	15	12
COc1ccc(-c2c3c(nc4sc5c(Cl)nc(C)nc5c24)CCC3)cc1	-3.0	-7%	-5	-7	-2
Cc1ccc(S(=O)(=O)NCCn2c(C)cc3ccccc32)cc1	x	x	-28	x	1
Cc1c(OCC(=O)NCC2CCC(C(=O)O)CC2)ccc2c3c(c(=O)oc12)CCC3 (centres undefined)	-0.4	x	x	-12	x

This part in full, previewed entries included:
SMILES	RecA splice inh	Mtb H37Rv	YopH inh	Mtb bLac sens	Arbovirus inh	others
COc1ccc2c(C)cc(N3CCN(c4ccc(F)cc4)CC3)nc2c1	0.6	4%	12	15	12
COc1ccc(-c2c3c(nc4sc5c(Cl)nc(C)nc5c24)CCC3)cc1	-3.0	-7%	-5	-7	-2
Cc1ccc(S(=O)(=O)NCCn2c(C)cc3ccccc32)cc1	x	x	-28	x	1
Cc1c(OCC(=O)NCC2CCC(C(=O)O)CC2)ccc2c3c(c(=O)oc12)CCC3 (centres undefined)	-0.4	x	x	-12	x
Cc1ccc2[nH]c3c(c2c1)CN(C(=O)CN(C)CC1OCCO1)CC3	-9.3	-3%	-1	-1	-3
O=C1NCCCc2nc(Oc3ccccc3)sc21	1.4	2%	-47	-10	0
Cc1nc2c(-c3ccc(Cl)cc3)cnn2c(N)c1-c1ccc(F)cc1	-3.5	x	x	-3	x
Cn1nccc1C(=O)N1CCN(c2cccc(Cl)c2)CC1	1.0	x	x	-1	x
COC(=O)c1ccc(NC(=O)Nc2ccc(C)cc2)cc1	-3.4	-9%	-21	-3	10
N#CCc1ccc(NC(=O)c2ccc(S(=O)(=O)N3CCOCC3)cc2)cc1	-0.1	x	x	-6	x
Cc1ccc(CN2CCN(/N=C/c3cccs3)CC2)cc1	0.3	2%	-15	-6	9
CCC1ON(C(C)C)C2c3nc4ccccc4n3CC12 (centres undefined)	0.1	-5%	x	8	x
Cc1c(NC(=O)CC(O)(C(F)(F)F)C(F)(F)F)c(=O)n(-c2ccccc2)n1C	-1.5	-2%	11	2	-2
CCCCCC(=O)Nc1nc(C)c(-c2csc(Nc3ccccc3OC)n2)s1	-2.1	3%	-1	70	-10
COC(=O)c1nnn(-c2nonc2N)c1CSc1nnc(N)s1	-0.2	0%	x	4	-1
Cc1cccn2c(=O)c3cc(S(=O)(=O)c4ccc(Br)cc4)c(=N)n(C4CCCC4)c3nc12	-0.1	x	x	-8	x
CC(C)(C)c1ccc(C(=O)Nc2ccc(N3CCOCC3)cc2)cc1	0.6	10%	2	9	-30
Oc1c(C(Nc2cccc(C(F)(F)F)c2)c2cccnc2)ccc2cccnc12 (centres undefined)	-5.8	-2%	-23	-1	-19
O=C(O)c1ccc(COc2ccc(CO)cc2Cl)cc1	0.8	-19%	2	3	6
CCOC(=O)c1c(C)[nH]c(C(=O)N2CCC(C(=O)OCC)CC2)c1C	0.5	x	x	0	x
c1ccc(CCCN2CCN(CCOC(c3ccccc3)c3ccccc3)CC2)cc1	7.9	5.2µM*	x	99	x
COC(=O)C(NC(C)=O)(Nc1nc2c(s1)CCCC2)C(F)(F)F (centres undefined)	5.4	3%	-13	4	2
CC(=O)Nc1ccc(S(=O)(=O)Nc2cccc(N(C)S(C)(=O)=O)c2)cc1	x	-7%	-70	-2	6
NNc1nc(-c2ccccc2)c2cc(Br)ccc2n1	-0.2	x	x	2	x
CN(C(=O)c1ccc(S(=O)(=O)N2CCCC2)cc1)C1CCCCC1	x	x	2	-1	8
CC(C)c1nnc(NC(=O)CCc2ccccc2)s1	0.3	x	x	-5	x
O=C(N[C@@H](Cc1ccccc1)C(=O)N1CCC2(CC1)NCCc1[nH]cnc12)c1cccc(F)c1	6.7	x	x	3	x
CCOc1ccccc1/C=C(\NC(=O)c1ccccc1)C(=O)NCCC(=O)O	0.5	-1%	-28	1	4
COc1ccc(C(=O)c2ccsc2N)cc1	0.5	x	x	4	x
O=C(C[n+]1ccc(-c2nnc3n2CCCCC3)cc1)c1ccc(Cl)cc1	4.3	-1%	x	-5	x
CCOC(=O)C(=NCCCN(C)C)NNc1ccc(Br)cc1	-2.4	u	-20	97	-25
Clc1ccc(-n2nnc(-c3cccnc3Cl)n2)cc1Cl	0.2	1%	x	0	-4
CCN1CCN(CCCN(Cc2ccco2)C(=S)Nc2ccc(C)c(Cl)c2)CC1	1.8	8%	x	-7	-10
COc1ccccc1NC(=O)CCCC(=O)OC(C)C(=O)c1ccccc1 (centres undefined)	1.3	x	x	-7	x
CCOC(=O)N/N=C/c1ccccc1F	1.0	x	-27	-9	3
Cc1ccccc1C1C(=O)c2ccccc2C1=O	2.4	x	x	100	x
CCN(C(=O)CN1CC=C(c2ccccc2)CC1)c1c(N)n(Cc2ccccc2)c(=O)[nH]c1=O	-2.8	2%	x	-3	10
O=C(N/C=C/c1ccccc1)c1ccccc1	0.9	x	x	-3	x
CCOc1ccc2oc(C(=O)NNC(=O)c3ccccc3O)c(C)c2c1	0.4	x	x	1	x
O=C(NCCc1ccccc1)c1noc2c1CCc1ccccc1-2	5.8	6%	-13	22	-2
COC(=O)c1cc(NC(=O)c2ccc(-c3ccccc3)cc2)ccc1Cl	0.2	-1%	-12	1	-13
CC(C)C1N=C(c2ccc3c(c2)OCO3)CC(c2ccccc2O)N1 (centres undefined)	-0.1	11µM*	-26	93	-38
COc1ccc(CCNC(=O)NC23CC4CC(CC(C4)C2)C3)cc1OC	-1.6	-3%	-2	-3	-1
Nc1nc2nccc(-c3ccco3)n2n1	x	-6%	x	-3	-4
CC(C)(C)OC(=O)NCc1ccc(CNC(=O)c2[nH]cnc2C(=O)N[C@@H](Cc2ccccc2)C(=O)OC(C)(C)C)cc1	-0.4	x	x	-3	x
Cc1ccc(S(=O)(=O)N2CCCC(C(=O)NCCC3=CCCCC3)C2)cc1 (centres undefined)	x	-6%	4	-4	4
Cc1ccccc1-n1c(=S)[nH]c2nc3c(cc2c1=O)CCCC3	12	-3%	x	0	21
CN1C[C@@H]2C(c3ccc(C(F)(F)F)cc3)C3(c4ccccc4)CC2(C3)[C@H]1c1ccccc1 (some centres undefined)	17	2%	x	16	x
CCNC(=S)N/N=C(\C)c1ccc2c(c1)OCCO2	0.8	-15%	-1	90	-7
CC(=O)c1cccc(N(C(=O)c2ccccn2)C(C(=O)NC2CCCCC2)c2cccs2)c1 (centres undefined)	-1.5	-4%	2	2	0
CN(Cc1cccs1)C(=O)CSc1nc(N)cc(N)n1	6.1	2%	x	5	11
CCc1ccc(OCC(=O)NC2CC(C)(C)NC(C)(C)C2)cc1	-1.8	-16%	x	-17	4
CC(=O)Nc1ccc(OCCOc2ccc(NC(C)=O)cc2)cc1	-1.6	x	x	1	x
COc1cccc(N(CC(=O)NCCSCc2ccc(Cl)cc2)S(C)(=O)=O)c1	0.9	x	x	-4	x
COc1ccc(CN(C)Cc2ccccc2)c(OC)c1OC	-1.9	-1%	-15	1	-5
COc1ccc(/C(=N/O)C(C)(C)NO)cc1	-5.2	0%	-11	0	4
COC(=O)C1(CO)NC(c2ccc(C)cc2)C2C(=O)N(c3ccccc3)C(=O)C21 (centres undefined)	1.5	x	x	-18	x
CCOC(=O)C1=C(C)C/C(=N\NC(=O)c2ccccc2O)CC1	0.5	u	x	98	x
CCOC(=O)c1sc(NC(=O)c2cc3ccccc3o2)nc1C	2.9	2%	x	-7	-8
COC(=O)Cn1nc(-c2ccccc2)c2ccccc21	0.3	-10%	-4	x	5
Additional structures follow:
SMILES	RecA splice inh	Mtb H37Rv	YopH inh	Mtb bLac sens	Arbovirus inh	others
CCN1CCN(c2ccc(S(=O)(=O)N3CCOCC3)cc2NC(=O)c2cc(Cl)nc3ccccc23)CC1	-0.3	x	x	0	x
Cc1cc2nc3n(c2cc1C)CC1CC(C(=O)NCCC(C)C)N(C)C31 (centres undefined)	0.2	x	x	-1	x
Nc1cccnc1Sc1cccc(Cl)c1	-1.3	4%	-27	-3	0
CCCC(C)c1nnc(NC(=O)CN2C(=O)c3ccccc3C2=O)s1 (centres undefined)	-0.5	5%	x	-2	2
C/C=C/C=C/C(=O)OC(C)C(=O)Nc1cc([N+](=O)[O-])ccc1OC (centres undefined)	-0.8	4%	x	-7	2
CS(=O)(=O)N(CC(=O)N1CCCCCC1)c1ccc2c(c1)OCCO2	1.2	-12%	15	5	1
O=C(CC1C(=O)NCCN1Cc1cccc(F)c1)NCCCN1CCCC1=O (centres undefined)	0.0	x	x	u	x
CC(C)(C)c1nnc(NS(C)(=O)=O)s1	-1.4	0%	-30	5	x
Cc1ccc(NS(=O)(=O)c2ccc3c(c2)oc(=O)n3C)cc1F	-6.3	13%	-25	0	21	Arbovirus inh repeat=7
Nc1ccc(-c2nnnn2-c2ccc(N)cc2)cc1	-2.5	x	x	1	x
Cc1ccc(CNC(=O)C2=CCN(S(=O)(=O)c3ccc(C)cc3)CC2)cc1	x	x	-21	1	3
CC1CCC(C(C)C)C(OC(=O)COC(=O)c2cc(O)ccc2N)C1 (centres undefined)	-4.7	-4%	-16	6	-2

Quoted at random: 5 records from the list.
SMILES	RecA splice inh	Mtb H37Rv	YopH inh	Mtb bLac sens	Arbovirus inh	others
CC1CCC(C(C)C)C(OC(=O)COC(=O)c2cc(O)ccc2N)C1 (centres undefined)	-4.7	-4%	-16	6	-2
Cc1cc2nc3n(c2cc1C)CC1CC(C(=O)NCCC(C)C)N(C)C31 (centres undefined)	0.2	x	x	-1	x
C/C=C/C=C/C(=O)OC(C)C(=O)Nc1cc([N+](=O)[O-])ccc1OC (centres undefined)	-0.8	4%	x	-7	2
Cc1ccc(NS(=O)(=O)c2ccc3c(c2)oc(=O)n3C)cc1F	-6.3	13%	-25	0	21	Arbovirus inh repeat=7
Cc1ccc(CNC(=O)C2=CCN(S(=O)(=O)c3ccc(C)cc3)CC2)cc1	x	x	-21	1	3

(next part)
SMILES	RecA splice inh	Mtb H37Rv	YopH inh	Mtb bLac sens	Arbovirus inh	others
COc1cc(/C=C/c2ccc3cccc([N+](=O)[O-])c3n2)ccc1OCC(=O)O	10	6%	x	x	4
COc1cc(C(=O)N2c3ccccc3CCC2C)cc(OC)c1OC (centres undefined)	-1.9	x	x	1	x
O=C1COCC(=O)N1CCc1c[nH]c2ccccc12	-0.2	14%	x	50	x
O=C(Nc1cc(F)ccc1F)C1CCCN(c2ncnc3c2nc2n3CCCCC2)C1 (centres undefined)	2.7	x	x	9	x
COc1ccc(C(=O)NCCC(C)C)cc1S(=O)(=O)N1CCOCC1	-5.6	-6%	4	-3	-6
Cc1oc(-c2cccs2)[n+]([O-])c1C	-0.1	-15%	-32	-8	5
Cc1ccc(C(C)C)c(OCc2ccc(C(=O)N/N=C/c3cccc(O)c3O)cc2)c1	7.9	8%	-19	2	-31
CCN(CC)CCNC(=O)c1ccccc1C(=O)c1ncc[nH]1	1.5	-3%	-21	-4	0
Cc1cc(S(=O)(=O)Nc2ccccc2C(=O)O)ccc1Cl	0.5	2%	-32	-2	12
COc1cccc(NC(=S)NC2CC3CCCC(C2)N3C2CCCC2)c1 (centres undefined)	0.7	2%	x	3	-3
O=C(Cc1ccccc1)NNC(=S)Nc1ccccc1	0.1	-4%	x	0	10
NC(=O)C1CCN(C(c2ccccc2F)c2nnnn2Cc2ccco2)CC1 (centres undefined)	1.4	6%	0	-6	8
O=C(N/N=C/C(Cl)=C/c1ccccc1)c1ccncc1	-0.6	u	x	-9	-7
Cc1ccc(NC(=S)NNS(=O)(=O)c2ccc3ccccc3c2)cc1Cl	0.6	u	x	-2	-1
N#CCCn1cc(C(=O)Nc2ccc(C(=O)O)cc2)c(-c2cc3ccccc3o2)n1	-0.4	6%	x	-6	9
CC(C)c1ccc(O)c(NC(=O)c2cncc(Br)c2)c1	-0.9	-5%	-23	6	21
O=C(O)[C@H](Cc1ccccc1)N1Cc2ccccc2C1=O	5.5	x	-39	-7	5	Arbovirus inh repeat=4
O=C(Nc1ccccc1)c1cccc2c(Br)cccc12	0.1	x	x	5	x
CCOC(=O)c1c(C)c(C(=O)NCc2ccc(OC)cc2)c(C)n1C	1.6	-4%	x	7	20
Cc1cccc(-n2nc(C)c3c2NC2=C(C(=O)CCC2)C3c2ccccn2)c1 (centres undefined)	-4.4	5%	x	4	1
CN1C(C(=O)NCc2cccc(C(F)(F)F)c2)CC2Cn3c(nc4cc(Cl)c(Cl)cc43)C21 (centres undefined)	1.7	0%	x	21	x
O=C(CCSc1nnc(-c2ccncc2)o1)Nc1ccccc1Cl	1.2	7%	-7	x	1
COCCSc1ccccc1C(=O)N1CCc2ccccc21	-1.2	x	x	0	x
COc1ccc(F)cc1S(=O)(=O)Nc1cc2c3c(c1)CCN3C(=O)CC2	2.3	x	x	-10	x
COc1ccc(C(C)=O)cc1COc1cccc2c1OC(C)(C)C2	-0.1	x	x	7	x

The list is partial (hit frequency here may not be typical).
